HNF4A DNA FP: change in binding of human HNF4 alpha to DNA; P41235; HNF4a-FITC DNA binding, fluorescence polarization, 1 h; activity change, % at 10 µM; 360,000 compounds, 0.3% hits; AID 1224865; in the data active means activity change above about 30%, passing the limit was not always enough;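 further: controls were the assay level and a saturating level of protein; the project sought stronger binding though the title names inhibitors; some compounds called inactive have numbers as strong as hits; positive values seem to mean higher polarization but the record does not say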
Target sequence (P41235 whole entry, looked up): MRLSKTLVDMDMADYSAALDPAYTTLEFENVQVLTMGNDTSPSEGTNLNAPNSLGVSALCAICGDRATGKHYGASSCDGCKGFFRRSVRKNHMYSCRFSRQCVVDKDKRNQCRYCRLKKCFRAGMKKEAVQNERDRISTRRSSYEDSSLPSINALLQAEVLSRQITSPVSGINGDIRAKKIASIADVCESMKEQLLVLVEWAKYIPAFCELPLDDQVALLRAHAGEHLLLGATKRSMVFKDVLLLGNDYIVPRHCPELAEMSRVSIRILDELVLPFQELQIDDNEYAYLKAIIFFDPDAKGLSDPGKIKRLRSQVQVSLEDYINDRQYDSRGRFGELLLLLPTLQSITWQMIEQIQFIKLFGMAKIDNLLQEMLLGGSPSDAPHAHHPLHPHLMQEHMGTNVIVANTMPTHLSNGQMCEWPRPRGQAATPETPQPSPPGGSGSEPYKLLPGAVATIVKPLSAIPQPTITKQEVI
Vif TR-FRET: inhibitors of Vif binding to APOBEC3G peptide, primary screen, biochemical, TR-FRET, GST-Vif 1-94, biotin-A3G peptide, dose response retest (AID 1117319) | TR-FRET GST-Vif / biotin-A3G peptide binding; higher % means a stronger effect; test concentration not given here; strong numbers were not always called active | one-dose inhibition, %; IC50 in µM for titrated hits | 260,000 compounds, 0.57% hits;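 active means above the screen mean plus three standard deviations and confirmed in dose response; inconclusive means results disagree or hit not tested in dose response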;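 further: Vif residues 1-94 fused to GST binding biotinylated APOBEC3G peptide 110-148; 0% = full assay without inhibitor and 100% = GST in place of GST-Vif; retest series ran down from 100 µM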
RanGTP-Imp inh: disruptors of Ran-importin-beta complex formation – biochemical, FRET, CFP-Ran, YFP-importin-beta, homogeneous, primary screen | inhibition, % (test concentration not listed) | 300,000 compounds, 1.1% hits | AID 2216 | cell-free CFP-Ran/YFP-importin-beta FRET ratio;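 active means most replicates above 15%; inconclusive means exactly half above 15%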;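 further: 0% = DMSO wells and 100% = Ran loaded with GDP instead of GTP; wells of about 40 µL received 100 nL stock; the first replicate is given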
FGF22 binding: FGF22 (human) thermal shift binding; 340,000 compounds, 1.5% hits; calls only at 9.99 µM; recombinant FGF22 thermal shift, SYPRO orange fluorescence; percent of sucrose octasulfate shift, DMSO zero; AID 651658;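 active means melting point raised past a set limit in the mean and every replicate; inconclusive means no clear call; three in four hits are not shown here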
Ecoli growth: blocks Escherichia coli growth. OD600, 23 h; hits give low values. OD600 absorbance (test concentration not listed). 330,000 compounds, 0.21% hits;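 active means OD600 absorbance below the run mean of sample wells minus 3.6 SD, in any replicate, cut at about 0.56 in these data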;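 further: stock transfer was 300 nL into about 60 µL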
MLL AF4-AF9 inh: MLL-AF4/AF9 protein interaction inhibition | inhibition, % at 10 µM | 350,000 compounds, 0.47% hits | P42568 | AlphaScreen, biotin-AF4 peptide binding to FLAG-AF9 | AID 651704;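 active means every replicate reaching a set inhibition limit, whatever the replicate mean, cut at about 25% in these data; inconclusive means mean inhibition reaches that limit but some replicates miss it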;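 further: 0% = plate neutral control median and 100% = total signal loss; the record names both 10 and 1 µM as test concentration; the first replicate is given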
Target sequence (P42568 whole entry, looked up): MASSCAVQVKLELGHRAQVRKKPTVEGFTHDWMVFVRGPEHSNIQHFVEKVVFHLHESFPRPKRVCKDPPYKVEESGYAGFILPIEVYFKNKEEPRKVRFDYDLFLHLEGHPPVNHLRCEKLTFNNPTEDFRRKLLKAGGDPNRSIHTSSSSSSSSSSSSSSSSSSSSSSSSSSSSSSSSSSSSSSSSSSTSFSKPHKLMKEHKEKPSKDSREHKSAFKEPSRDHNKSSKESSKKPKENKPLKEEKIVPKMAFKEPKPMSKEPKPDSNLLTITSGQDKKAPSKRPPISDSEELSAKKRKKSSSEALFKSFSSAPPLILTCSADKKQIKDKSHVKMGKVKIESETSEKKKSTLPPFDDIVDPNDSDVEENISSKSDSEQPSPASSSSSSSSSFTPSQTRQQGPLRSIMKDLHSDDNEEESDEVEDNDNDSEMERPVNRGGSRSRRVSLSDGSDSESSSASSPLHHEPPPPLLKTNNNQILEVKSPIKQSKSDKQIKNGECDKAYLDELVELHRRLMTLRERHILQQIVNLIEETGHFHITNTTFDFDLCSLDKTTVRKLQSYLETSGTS
UCH37 DUB inh: inhibitors of human deubiquitinating enzyme UCH37. 330,000 compounds, 0.33% hits. inhibition, % (test concentration not listed). Q9Y5K5. purified proteasome/UCH37, Ub-AMC cleavage fluorescence. AID 588478;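 active means mean of two replicates above 20%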;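 further: 0% = compound-free wells with enzyme and 100% = wells lacking proteasome; stock transfer was 100 nL into about 20 µL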
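Reagent: Ub-AMC substrate; assay system: Proteasome-associated human UCH37 deubiquitinase; controls: no-proteasome and no-compound wells; read-out: % inhibition of Ub-AMC cleavage fluorescence; timing: 30 min preincubation with enzyme, 25 min cleavage at room temperature; signal: AMC fluorescence from Ub-AMC cleavage, excitation 355 nm, emission 460 nm; buffer or medium: Tris-HCl pH 7.4 plus ovalbumin, ATP-MgCl2, DTT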
Numbers without * were called inactive; i = inactive; ? = inconclusive; / = no result given; & = joins results of further samples.

SMILES	HNF4A DNA FP	Vif TR-FRET	RanGTP-Imp inh	FGF22 binding	Ecoli growth	MLL AF4-AF9 inh	UCH37 DUB inh
Cc1oc(S(=O)(=O)N2CCCC2)cc1C(=O)Nc1ccc(F)cc1	4.4	0%	-2.0	i	0.65	0.6	0.7
Cc1ccccc1CN1C[C@@H]2C[C@@H](c3cnc(N4CCOCC4)s3)N3CCC[C@@]23C1=O	-6.3	16%	0.5	i	/	-9.9	2.7
O=C(O)c1ccc(OCC(O)Cn2cnc3ccccc32)cc1 (stereo not given)	1.0	4%	2.0	/	0.67	/	4.6
Cc1cc(C)c(NC(=O)COC(=O)C23CC4CC(CC(O)(C4)C2)C3)c(Cl)c1	1.5	-1%	/	i	0.67	0.4	0.5
Cc1nn(-c2ccccc2)c(Cl)c1/C=N/NC(=O)c1ccccc1F	0.9	5%	3.7	i	/	/	/
COc1ccccc1CN(C)C(=O)C(NC(=O)Cc1cccc2ccccc12)C(C)C (stereo not given)	-1.1	-1%	-1.7	i	/	-0.4	/
CCN1CCN(c2nc(-c3ccccn3)nc3ccccc23)CC1	-2.9	-3%	-1.4	/	0.7	/	5.0
C=CCOCCN(CC)CC	2.7	-3%	4.0	i	0.69	-0.5	-1.2
CC(C)C(=O)N[C@@H]1c2ccccc2CC[C@H]1OCc1ccccc1	-0.6	-5%	/	i	0.72	-2.6	3.3
CCOc1ccccc1COC(=O)c1cccc(-n2cnnn2)c1	3.5	-7%	-6.3	/	0.68	/	-1.6
C=CCn1c(Sc2nncn2C)nc2c1c(=O)[nH]c(=O)n2C	0.2	28%	0.4	/	0.69	/	-1.1
COC(CNC(=O)c1ccc2nc(-c3ccccc3)c(-c3ccccc3)nc2c1)OC	2.5	-4%	-1.9	i	0.7	-0.1	-238
CCOC(=O)N1CCC(NC(=O)c2sc(-n3cccc3)nc2C)CC1	0.3	29%	4.1	/	0.77	/	-0.6
NC(=O)C1CCN(CC(=O)N2c3ccccc3CCc3ccccc32)CC1	0.1	-3%	1.2	/	0.74	/	0.8
C=CCSc1nc(C)c(CC(=C)C)c(=O)[nH]1	-4.2	-5%	-3.6	i	0.69	-0.9	2.5
COc1cccc(-c2ccc(CN3C(C)C(=O)N(Cc4cn(Cc5ccco5)nn4)CCS3(=O)=O)cc2)c1OC (stereo not given)	5.1	/	/	i	/	-4.7	/
COc1ccc(C2=NOC(C(=O)NC(C)(C)C)C2)cc1 (stereo not given)	-4.9	-3%	2.4	/	0.74	/	4.8
COC(=O)c1ccc(CNC(=O)/C=C/c2cc([N+](=O)[O-])ccc2OC(F)F)cc1	3.3	2%	0.5	/	0.73	/	1.9
Cc1ccc(S(=O)(=O)NCC(c2cccnc2)N2CCc3ccccc32)cc1 (stereo not given)	-2.5	/	2.9	i	0.74	8.3	-0.7
COCC(C)n1c(=O)sc2ccccc2c1=O (stereo not given)	2.8	8%	0.8	i	0.69	-0.1	0.1
COc1cc(CNCc2ccccn2)ccc1OCc1ccc(Cl)c(Cl)c1	-3.1	/	1.6	i	0.66	19	5.8
Cc1ccccc1Cn1c2ccccc2c2cnn(CC(=O)NCc3ccco3)c(=O)c21	-1.3	-5%	2.0	i	0.75	1.0	-1.2
COc1ccc(N2CCC(CNC(=O)Nc3ccc(Cl)cc3)C2)cc1 (stereo not given)	13	17%	3.4	i	0.64	12	2.0
CCCOc1ccc(C(=O)c2nc3c(n2O)CCCC3)cc1	3.0	-1%	-0.8	/	0.7	/	10
CCOc1ccc(/C=N/NC(=O)c2ccc(Cn3cc(Br)cn3)o2)cc1	-2.3	/	-1.9	i	/	-1.8	/
COc1ccc(CCNC(=O)CSc2ccc(-c3ccccc3)nn2)cc1	/	/	0.2	/	0.7	/	2.9
O=C1CN(C(=O)CSc2nc3cc(Cl)ccc3c(=O)n2Cc2ccccc2)c2ccccc2N1	6.4	-7%	3.1	i	0.72	0.8	0.1
NC(=O)c1nnsc1Sc1c(C(N)=O)nnn1-c1cccc(N)c1	-0.4	-8%	2.5	i	0.71	-0.9	0.9
NC(=O)c1cc([N+](=O)[O-])c(Cl)cc1NCc1cccnc1	-4.0	/	/	i	0.71	-2.1	2.8
Fc1ccccc1-c1nc2c(s1)CCc1onc(-c3ccc(Br)cc3)c1-2	6.5	/	3.7	i	0.74	-2.4	2.6
COc1ccc2c(c1OC)C(=O)N(c1ccc(OCc3ccccc3)cc1)C2=O	0.2	-3%	2.3	i	0.66	-2.0	1.1
NC(=O)c1ccccc1NC(=O)c1cccc(C(=O)Nc2ccccc2C(N)=O)n1	3.2	/	-2.3	i	0.67	-0.9	-30
COc1ccccc1NC(=O)CCC(=O)OCc1ccc(Cl)cc1	0.9	-1%	-0.4	i	0.7	-6.5	3.1
COc1ccc(OC)c(S(=O)(=O)Nc2cc3c4c(c2)C(C)C(=O)N4CCC3)c1 (stereo not given)	1.5	-5%	0.7	i	0.67	-8.1	1.3
COC(=O)[C@@H]1C[C@]2(OC(=O)c3ccccc3)C=CC(=O)C[C@@H]2N1C(=O)OCc1ccccc1	2.1	5%	-2.3	i	/	-1.0	0.2
Cc1nn(C)c(C)c1NS(=O)(=O)c1ccc(N2CCCC2=O)cc1	-0.3	/	-2.9	i	0.69	-0.2	1.5
COc1ccc(CCNC(=O)Nc2nc(C(N)COCc3ccccc3)cs2)cc1OC (stereo not given)	0.7	/	/	i	/	16	/
CC(NC(=O)COc1ccc(-c2nnco2)cc1)c1ccc(Cl)cc1Cl (stereo not given)	1.6	13%	-0.6	/	0.68	/	0.2
CCOc1ccc(C(c2nnnn2Cc2ccccc2)N2CCN(C(=O)c3ccco3)CC2)cc1 (stereo not given)	-0.5	0%	-0.6	/	0.75	/	-1.2
Nc1cc(Cl)ccc1N1CCOCC1	1.2	10%	-0.4	/	0.73	/	-0.3

Of the compounds above, these have a furan ring, fused or not:
SMILES	HNF4A DNA FP	Vif TR-FRET	RanGTP-Imp inh	FGF22 binding	Ecoli growth	MLL AF4-AF9 inh	UCH37 DUB inh
Cc1oc(S(=O)(=O)N2CCCC2)cc1C(=O)Nc1ccc(F)cc1	4.4	0%	-2.0	i	0.65	0.6	0.7
COc1cccc(-c2ccc(CN3C(C)C(=O)N(Cc4cn(Cc5ccco5)nn4)CCS3(=O)=O)cc2)c1OC (stereo not given)	5.1	/	/	i	/	-4.7	/
Cc1ccccc1Cn1c2ccccc2c2cnn(CC(=O)NCc3ccco3)c(=O)c21	-1.3	-5%	2.0	i	0.75	1.0	-1.2
CCOc1ccc(/C=N/NC(=O)c2ccc(Cn3cc(Br)cn3)o2)cc1	-2.3	/	-1.9	i	/	-1.8	/
CCOc1ccc(C(c2nnnn2Cc2ccccc2)N2CCN(C(=O)c3ccco3)CC2)cc1 (stereo not given)	-0.5	0%	-0.6	/	0.75	/	-1.2

Following part.
SMILES	HNF4A DNA FP	Vif TR-FRET	RanGTP-Imp inh	FGF22 binding	Ecoli growth	MLL AF4-AF9 inh	UCH37 DUB inh
CCCCCCc1c(O)nc(SCCN(C)C)[nH]c1=O	0.1	-1%	3.8	i	0.71	?	1.8
COc1ccccc1N1CCN(c2ccc(Cl)nn2)CC1	0.0	23%	-0.8	i	0.66	0.0	3.6
CCOC(=O)C1CCN(c2cc(C)nc3ccc(OC)cc23)CC1	-0.6	4%	-2.4	i	0.7	0.9	8.1
CCOC(=O)C(C)Sc1cnccn1 (stereo not given)	1.9	-6%	-2.9	i	0.69	0.4	-1.7
CC(C)(C)NS(=O)(=O)c1ccc(NC(=O)CS(=O)(=O)Cc2ccccc2)cc1	4.4	/	-0.2	i	0.67	1.3	-1.0
CCO[C@@H]1OC(C(=O)Nc2ccccc2)=C[C@H](c2ccc(C(F)(F)F)cc2)[C@H]1CCCO	-7.9	0%	-0.1	i	/	-9.3&-0.2	0.8
O=[N+]([O-])c1ccc(NN=Cc2ccc(O)cc2O)nc1	13	-3%	/	i	0.7	-3.9	1.3
COC(=O)C1=C(C)N=C2SC(C)C(=O)N2C1c1cccs1 (stereo not given)	0.3	-2%	0.4	/	0.69	/	0.6
CCC(C)(C(=O)NC1CCCCC1)N(C(=O)C1CCC(=O)N1)c1ccc(C)cc1 (stereo not given)	2.9	-6%	/	/	0.75	/	0.5
O=[N+]([O-])c1cccc(C(=S)N2CCCC2)c1	4.5	/	5.5	i	0.66	-12	4.1
COc1ccc(C(c2nnnn2CS(=O)(=O)c2ccc(C)cc2)N2CCN(Cc3ccccc3)CC2)cc1 (stereo not given)	-1.9	/	3.1	/	0.68	/	-0.4
COc1ccccc1NC(=O)COC(=O)c1cc2c(s1)CCC2	-10	18µM*	/	i	0.65	0.4	-1.5
O=C(CN(c1ccc(Br)cc1)S(=O)(=O)c1ccc(Cl)c([N+](=O)[O-])c1)NCCc1ccccc1	0.8	8%	0.6	/	0.75	-2.4	4.5
O=C(COc1cccc2c1CCNC2=O)Nc1cccc(C(F)(F)F)c1	2.2	3%	3.4	/	0.64	/	-1.2
Cc1cnc2cc(Cl)ccc2c1SCC(=O)O	0.9	4%	-2.8	i	0.66	-3.6	0.8
COc1ccc(-c2csc3ncn(-c4ccccc4OC)c(=O)c23)cc1OC	-4.9	3%	0.5	i	0.66	1.2	1.1
Cc1cc(=O)n2[nH]c(N3C(=O)CCC3=O)nc2n1	-0.3	-1%	-1.8	/	0.72	/	0.3
CCN1CCN(c2ccc(S(=O)(=O)N3CCOCC3)cc2NC(=O)c2sccc2C)CC1	0.1	6%	0.0	i	0.66	1.4	1.8
O=C(NC(NC(=S)Nc1ccccc1C(=O)O)C(Cl)(Cl)Cl)c1cccc([N+](=O)[O-])c1 (stereo not given)	-3.9	11%	1.0	/	0.68	/	-3.9
COc1ccc(/C=C2\SC(=O)N(CCC(=O)N(C)C3CCS(=O)(=O)C3)C2=O)cc1 (stereo not given)	2.5	/	-4.3	i	0.71	-3.8	8.7
CCOc1ccc(NC(=O)CN2CCN(c3ccc(F)cc3)CC2)cc1	-1.1	-4%	0.7	i	0.64	-10	2.6
CC(=O)Nc1ccc(NC(=O)COC(=O)c2cc(S(=O)(=O)N3CCCC3)ccc2O)cc1	3.4	-9%	/	i	0.67	-0.5	-11
Cc1cc(Nc2ccc(Cl)cc2)nc(N)n1	3.0	11%	-1.4	/	0.68	/	5.2
COc1ccc(C(=O)N/N=C/C(=O)c2ccccc2)cc1	3.8	/	1.5	i	/	0.0	/
CC(NC(=O)c1ccccc1)C(=O)OCC(=O)Nc1cccc(S(=O)(=O)N2CCCC2)c1 (stereo not given)	-2.0	/	/	i	0.71	0.8	2.2
CC(O)(c1ccc(F)c(F)c1)c1nc(-c2cc(F)cc(F)c2)cs1 (stereo not given)	0.4	/	/	i	/	-9.1	/
CCOc1[nH]n(-c2ccccc2)c(=O)c1C=NCc1cccnc1	-0.1	-7%	3.6	/	0.7	2.3	1.9
COc1cccc(NC(=O)CNC(=O)Cn2cnc3sc(C)c(C)c3c2=O)c1	5.5	-1%	-1.6	i	0.6	0.3	3.2
CCOC(=O)Nc1cc(=O)c2ccccc2o1	1.9	-1%	-3.4	/	0.69	/	-0.7
CC(=O)c1cn(CC(=O)Nc2cccc(C)c2C)c2ccccc12	3.4	-6%	-0.3	/	0.72	-2.2	5.0
Cc1cc(NC(=O)CSc2nccn2-c2cccc(C)c2C)no1	4.3	/	2.3	/	0.69	-1.3	1.7
O=C(C(=O)N1CCN(c2cccc(Cl)c2)CC1)c1cn(CC(=O)N2CCOCC2)c2ccccc12	-0.6	/	-2.8	i	0.71	4.4	6.7
CCCCn1c(-c2ccoc2C)n[nH]c1=S	-2.3	-2%	1.3	/	0.66	/	5.5

Only part of the results is shown, so the mix of outcomes need not match the whole.
